# Mtb betalactam: beta-lactam sensitization of Mtb H37Rv; M. tuberculosis H37Rv growth with meropenem, percent inhibition; hits of this screen are not shown here; inhibition, % at 25 µM; 330,000 compounds, 0.27% hits; AID 434955;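 active means about 74% or more and at least 40 points above the plate without the antibiotic, then above 30% in a dose series; inconclusive means first-round hits that could not be retested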;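 further: growth measured after seven days incubation then overnight dye step; 0% = bacteria only wells and 100% = bacteria with antibiotic; twin plates without the antibiotic show which effects depend on it; some results filed as inactive read as strong as hits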
# RecA intein inh: Mtb RecA intein splicing inhibition. P9WHJ3. cell-free RecA intein splicing, fluorescence. inhibition, %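 (about 9 µM by stock and volumes)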. 290,000 compounds, 0.75% hits; in the data active means inhibition above about 30%; inconclusive means no clear call, values can overlap the other calls;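 further: 0% = vehicle wells and 100% = reference inhibitor control wells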
# Target sequence (P9WHJ3 whole entry, looked up): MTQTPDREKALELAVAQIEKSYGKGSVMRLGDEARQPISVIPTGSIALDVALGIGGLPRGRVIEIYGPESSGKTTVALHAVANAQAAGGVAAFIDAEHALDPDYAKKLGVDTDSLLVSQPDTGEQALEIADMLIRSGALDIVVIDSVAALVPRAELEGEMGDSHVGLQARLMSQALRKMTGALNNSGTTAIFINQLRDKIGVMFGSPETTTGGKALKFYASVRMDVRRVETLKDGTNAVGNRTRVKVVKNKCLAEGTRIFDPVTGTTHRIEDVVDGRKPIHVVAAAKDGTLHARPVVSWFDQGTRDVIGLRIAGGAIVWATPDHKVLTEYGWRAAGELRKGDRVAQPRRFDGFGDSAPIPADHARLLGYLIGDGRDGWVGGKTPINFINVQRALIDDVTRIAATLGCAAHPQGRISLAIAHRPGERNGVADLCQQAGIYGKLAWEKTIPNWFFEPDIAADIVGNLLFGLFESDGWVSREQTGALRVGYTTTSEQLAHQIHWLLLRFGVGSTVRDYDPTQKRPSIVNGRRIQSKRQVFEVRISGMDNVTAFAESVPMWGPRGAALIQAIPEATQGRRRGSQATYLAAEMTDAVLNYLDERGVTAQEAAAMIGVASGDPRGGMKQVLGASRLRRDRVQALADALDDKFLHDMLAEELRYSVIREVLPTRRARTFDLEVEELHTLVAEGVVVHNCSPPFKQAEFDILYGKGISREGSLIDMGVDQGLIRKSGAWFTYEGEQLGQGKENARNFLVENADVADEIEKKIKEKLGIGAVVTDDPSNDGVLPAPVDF
# Mtb H37Rv: M. tuberculosis H37Rv growth inhibitors, H37Rv strain (AID 1626); M. tuberculosis H37Rv growth inhibition; higher % means a stronger effect; inhibition, % at 10 µM, or IC50 in µM where a hit was titrated; 220,000 compounds, 0.95% hits;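 active means confirmed in a dose series; inconclusive means inhibition above 80% but not taken into the dose series; inactive means below 80% or under 30% at every dose of the series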;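 further: bacteria incubated seven days before Alamar blue readout; 0% = bacteria only wells and 100% = bacteria with antibiotic wells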
# YopH PTP inh: YopH (Yersinia) phosphatase inhibition; fluorescence Ex485/Em525; inhibition, %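 (about 10 µM by stock and volumes)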; 140,000 compounds, 0.16% hits; AID 898;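 active means inhibition of 50% or more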;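 further: controls were vehicle for no effect and minimum signal wells for full effect; inactives centre near -20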
# Arbovirus inh: antivirals against arbovirus infection. arbovirus infection cell-based antiviral screen. inhibition, % at 10 µM. 200,000 compounds, 0.37% hits;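 active means inhibition from about 30%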;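 further: bluetongue infection of BSR cells; cell survival read as ATP light after 72 h; 0% = infected wells without compound and 100% = uninfected wells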
# Arbovirus inh repeat: also measured in Arbovirus inh; calls as there; inhibition, %; measured here: 10K subset replicate screen; many hits read low in the repeat;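 first of two repeat runs on a subset; 0% = infected and 100% = uninfected wells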
# An asterisk follows results filed as active; i = inactive; ? = inconclusive; / = no result given. An excerpt; count on the stated rates, not on these rows.
SMILES,Mtb betalactam,RecA intein inh,Mtb H37Rv,YopH PTP inh,Arbovirus inh,others
Cc1oc(-c2ccccc2)nc1C(=O)Nc1nccs1,14,-0.5,3%,-3,4,
CC(C)(C)NC(=O)C(c1ccncc1)N(C(=O)c1csnn1)c1cccc2ccccc12 (stereo unspecified),2,0.9,3%,/,0,
N#CC1=C(N)OC2=C(C(=O)CCC2)C1Cc1ccccc1 (stereo unspecified),-12,2.6,-8%,11,/,
COC(=O)CN(c1ccc(OC)cc1)S(=O)(=O)c1ccc(OC)c(OC)c1,-12,-1.4,-14%,5,5,Arbovirus inh repeat=4
C=CCNC(=S)NNC(=O)c1cc(Cl)ccc1OC,1,0.3,-4%,/,/,
O=C1NCCN1CCNS(=O)(=O)c1ccc(F)cc1,-6,0.9,-2%,0,2,
CNC(=S)N1CCN(c2ccccn2)CC1,-2,-1.9,-5%,-24,8,
Cc1c(N=C2C=CC(=O)c3ccccc32)c(=O)n(-c2ccccc2)n1C,/,72*,-7%,/,-32,
COc1cc(C(=O)NCCOc2cccc3cccnc23)cc(OC)c1OC,-16,/,3%,/,-18,
O=C1/C(=C\c2ccc3c(c2)OCO3)CCC/C1=C/c1ccc2c(c1)OCO2,15,7.1,/,-57,12,
O=C(N/C(=C\c1ccccc1Cl)C(=O)N1CCOCC1)c1ccc([N+](=O)[O-])cc1,4,0.1,-7%,/,-4,
NCCCCCC(=O)OC1N=C(c2ccccc2Cl)c2cc(Br)ccc2NC1=O (stereo unspecified),1,3.3,1%,/,-2,
Cn1cc(C(C[N+](=O)[O-])c2ccccc2)c2ccccc21 (stereo unspecified),11,8.9,/,/,/,
CCC(O)(CC)C(=O)NN(C(=O)CCl)c1ccccc1,80,13,-2%,-3,-18,
Cc1cc(Nc2ccc(F)cc2F)n2ncnc2n1,2,2.6,/,-23,2,Arbovirus inh repeat=1
CC(=O)Nc1cccc(C(=O)Nc2ccccc2N2CCOCC2)c1,-7,-1.3,-6%,-32,-11,
COC(=O)c1cccc(CSc2nc(-c3ccccc3)c(C#N)c(=O)[nH]2)c1,-10,7.3,/,/,/,
Cc1oc(-c2ccccc2Cl)nc1CSCC(=O)NC1CC1,-8,0.5,5%,-42,9,
COc1ccc(CCN2CC(C(=O)NCCc3cn[nH]c3)CCC2=O)cc1 (stereo unspecified),2,1.0,/,/,/,
Cc1[nH]c(-c2ccc(F)cc2)cc1C(=O)N1CCN(c2cccc(Cl)c2)CC1,5,9.4,/,/,/,
CN1CCN(CCCNC(=O)CCC(=O)N2CCOc3ccccc32)CC1,-7,-1.9,/,/,/,
CN(C)S(=O)(=O)c1ccc(Cl)c(C(=O)Nc2ccccc2[N+](=O)[O-])c1,-3,-2.7,-2%,-28,3,
OC(CN1CCCCC1)Cn1c2ccccc2c2cc(Br)ccc21 (stereo unspecified),93,5.3,/,/,/,
COc1ccccc1C(CNC(=O)COc1ccccc1C)N1CCCC1 (stereo unspecified),-4,11,/,/,/,
COC(=O)c1ccc(C(=O)OC)c(NC(=S)N2CCOCC2)c1,9,-1.9,5%,/,5,
CCOC(=O)C1=C(C)N=C2c3ccccc3C(=O)C2C1c1ccc(Br)cc1 (stereo unspecified),7,6.1,13%,-28,15,
Cc1cc(NC(=O)CS(=O)(=O)c2cn(C)c3ccccc23)no1,-7,-1.3,-3%,-45,4,
CCCn1c(NC(=O)C2COc3ccccc3O2)nc2ccccc21 (stereo unspecified),50,-1.5,?,-30,-11,
CC1(C)Cc2c(C#N)c(SCCC#N)nc(N3CCOCC3)c2CS1,8,0.2,-7%,-23,3,
O=C(CSc1nc2scc(-c3ccco3)c2c(=O)n1-c1ccccc1)NCC1CCCO1 (stereo unspecified),-20,2.3,-9%,10,3,

# Grouped by structure, the entries above containing a nitro group on carbon.
SMILES,Mtb betalactam,RecA intein inh,Mtb H37Rv,YopH PTP inh,Arbovirus inh,others
O=C(N/C(=C\c1ccccc1Cl)C(=O)N1CCOCC1)c1ccc([N+](=O)[O-])cc1,4,0.1,-7%,/,-4,
Cn1cc(C(C[N+](=O)[O-])c2ccccc2)c2ccccc21 (stereo unspecified),11,8.9,/,/,/,
CN(C)S(=O)(=O)c1ccc(Cl)c(C(=O)Nc2ccccc2[N+](=O)[O-])c1,-3,-2.7,-2%,-28,3,

# Remaining list, next part.
SMILES,Mtb betalactam,RecA intein inh,Mtb H37Rv,YopH PTP inh,Arbovirus inh,others
CC(C)Cc1oc(C(=O)O)cc1CN1CCOCC1,1,-0.9,2%,/,8,
Cn1c(CNC(=O)CNS(=O)(=O)c2ccc(Cl)cc2)cc(=O)n(C)c1=O,-3,-1.2,/,/,/,
Cc1cccc(N2C(=O)c3ccccc3C2=O)n1,-1,0.4,/,/,/,
COc1ccc(CNS(=O)(=O)c2cc3c(cc2Cl)NC(=O)CO3)cc1,6,-0.9,/,/,/,
CCOC(=O)C1CCCN(C(=S)Nc2cc(C)cc(C)c2)C1 (stereo unspecified),7,0.5,3%,-11,3,
CCCCCCSc1cc(-c2nc3ccc(C)cn3c2NCc2ccccc2)ccc1OC,5,4.2,/,/,/,
O=C(CS(=O)(=O)Cc1ccccc1)N1CCN(Cc2ccc3c(c2)OCO3)CC1,-4,-0.9,-9%,-1,6,
COc1cc2[nH]c(=O)n(CCC(=O)N3CCN(Cc4ccc5c(c4)OCO5)CC3)c(=O)c2cc1OC,-6,-0.2,0%,/,20,
C=CCSc1nc(O)c(CC)c(=O)n1C(C)CC (stereo unspecified),?,-3.4,0%,-57,8,
COCCCn1c(=NC(C)=O)c(C#N)cc2c(=O)n3cccc(C)c3nc21,-7,i,-7%,/,/,
O=C(O)c1cccc(Nc2ccnc(Nc3cccc(C(=O)O)c3)n2)c1,1,-2.5,/,/,/,
Cn1cc(CN2C[C@H]3CC[C@H]2C3)c(-c2ccccc2F)n1,0,-2.2,-1%,/,4,
O=c1[nH]c(SCc2ccccc2Cl)nc2c1CCC2,14,1.2,6%,-6,2,Arbovirus inh repeat=6
Cc1cc(C)n(-c2nc(NCCCO)c3c4c(sc3n2)CCCC4)n1,92,8.0,39%,-34,-18,
CCCc1cc(=O)[nH]c(Nc2ccc3c(c2)OCCO3)n1,-3,-0.6,-1%,/,1,
NNC(=O)c1ccccc1OCCOc1ccccc1,10,8.4,/,/,/,
CCOC(=O)C1(Cc2ccc(Cl)cc2)CCN(C(=O)c2sc(C)nc2C)CC1,-6,2.6,-1%,/,11,
Cc1ccc(SCC(=O)N(C)C2CCS(=O)(=O)C2)cc1 (stereo unspecified),-10,-2.9,72%,/,-2,
CSc1oc(-c2ccccc2)nc1S(=O)(=O)c1ccc(F)cc1,-6,-0.4,1%,31,-8,
CCOC(=O)CNC(=O)Cc1ccc(Cl)cc1,6,-0.8,-15%,/,/,
CCCOC(=O)c1c(NC(=O)/C=C/c2cnn(C)c2C)sc(C(=O)OC)c1C,-9,-0.2,5%,14,-1,
CCCc1nnc(NC(=O)CSc2nnc(-c3ccco3)n2C)s1,4,0.5,/,/,/,
Cc1[nH]c(=O)[nH]c(=O)c1/C=C/C(=O)OCC(C)C,-2,2.4,1%,-28,-6,
O=C(NS(=O)(=O)Oc1ccc(Cl)cc1)OC[C@@H]1CCCN2CCCC[C@H]12,-2,-3.5,5%,-19,-5,
COCCCNC(=O)c1ccc(C(=O)NCCCOC)cc1,/,0.8,-1%,-19,10,
CC1CCN(S(=O)(=O)c2ccc(C(=O)N3CCCC(C(F)(F)F)C3)cc2)CC1 (stereo unspecified),-1,0.5,/,/,/,
CCNC(=S)N(CCc1c(C)[nH]c2ccccc12)Cc1cccnc1,0,1.1,/,/,/,
CCOc1ccc(-n2c(SCC(=O)NC(C)CC)nc3n[nH]c(C)c3c2=N)cc1 (stereo unspecified),2,-9.7,-1%,-37,-8,
CCOCCn1c(CN2CCC(C)CC2)nc2c1c(=O)n(C)c(=O)n2C,/,/,6%,-20,4,Arbovirus inh repeat=1
CC(=O)c1c(C)n([O-])c2cc(C)ccc2[n+]1=O,100,2.7,?,-38,-2,

# Structures shown so far containing bromine:
SMILES,Mtb betalactam,RecA intein inh,Mtb H37Rv,YopH PTP inh,Arbovirus inh,others
NCCCCCC(=O)OC1N=C(c2ccccc2Cl)c2cc(Br)ccc2NC1=O (stereo unspecified),1,3.3,1%,/,-2,
OC(CN1CCCCC1)Cn1c2ccccc2c2cc(Br)ccc21 (stereo unspecified),93,5.3,/,/,/,
CCOC(=O)C1=C(C)N=C2c3ccccc3C(=O)C2C1c1ccc(Br)cc1 (stereo unspecified),7,6.1,13%,-28,15,

# Fetched by compound from the entries so far, two records:
SMILES,Mtb betalactam,RecA intein inh,Mtb H37Rv,YopH PTP inh,Arbovirus inh,others
NNC(=O)c1ccccc1OCCOc1ccccc1,10,8.4,/,/,/,
COCCCNC(=O)c1ccc(C(=O)NCCCOC)cc1,/,0.8,-1%,-19,10,

# (continued)
SMILES,Mtb betalactam,RecA intein inh,Mtb H37Rv,YopH PTP inh,Arbovirus inh,others
CSc1ncc(Cl)c(C(=O)Nc2cccc3ccccc23)n1,/,-0.3,5%,-23,-19,
COc1ccc(CN2C(=O)N(c3ccc(OC)cc3)C(=O)C2CC(=O)Nc2ccccc2)cc1 (stereo unspecified),-2,-2.2,6%,/,0,
CC(C)c1nc2oc3c(NCCO)ncnc3c2c2c1COC(C)(C)C2,-2,3.0,-1%,/,/,
CSc1ccc(CN(C)C(=O)COc2ccc(C(=O)c3ccccc3)cc2)cc1,0,4.3,/,/,/,
O=C(/C=C/Sc1ccccc1)c1ccc(Cl)cc1,100,2.8,6.4µM*,-10,-36,
CCCn1c(=O)c2ccccc2n2c(SCc3cc(=O)oc4ccc5ccccc5c34)nnc12,-5,9.7,4%,-36,3,
C#CCOC(=O)CCC(=O)Nc1cc(OC)nc(OC)n1,/,/,-3%,-19,0,
COc1ccc(-n2c(C)cc(/C=C3/SC(=S)N(C)C3=O)c2C)cc1,-7,0.9,-2%,-22,-10,
COc1ccc(-c2ccc(-c3nc4c(c(=O)[nH]c(=O)n4Cc4ccccc4)n3C)o2)c([N+](=O)[O-])c1,91,2.4,18%,-5,-28,
CCc1nnc(NC(=O)c2ccc3ncsc3c2)s1,-5,5.9,-19%,/,/,
CSC1=C(C#N)C(c2ccc(C)s2)CC(=O)N1 (stereo unspecified),2,-1.2,-6%,-6,-3,
O=C(c1ccco1)N1CCN(C2=NS(=O)(=O)c3ccccc32)CC1,-4,-1.9,-7%,14,-1,Arbovirus inh repeat=0
Cc1[nH]c(=O)c(C(=O)c2cc(Cl)ccc2O)cc1C(=O)O,-11,0.6,0%,/,8,
CC(=O)c1ccc(OCCOc2ccc(Cl)c3cccnc23)cc1,7,0.7,1%,/,-3,
CCOC(=O)c1ccc(COC(=O)CNC(=O)CNC(=O)Cc2ccccc2)cc1,-7,0.4,/,/,/,
Cc1ccc(-n2ncc3c(=O)n(-c4ccc(C)c(C)c4)c(-c4ccco4)nc32)cc1,1,4.6,0%,-6,-11,
CN(C)S(=O)(=O)c1cccc(NC(=O)CN2C(=O)NC3(CCc4ccccc4C3)C2=O)c1 (stereo unspecified),-4,0.3,/,/,/,
Cc1ccc(C)c(OCc2cc(C(=O)N(C)Cc3ccccn3)no2)c1,0,6.3,/,/,/,
Oc1[nH]c2ccccc2c1N=Nc1ncnc2c1oc1ccccc12,-2,0.3,-17%,/,/,
Cc1cc(C)cc(NC(=O)c2cc(C)n(Cc3cccs3)c2C)c1,-7,3.1,-11%,/,/,
CCc1nc2sc(C(C)=O)c(N)c2c2c1CCCC2,8,-66,-1%,/,/,
CC(=O)Oc1c(C(C)C)cc(N(C(C)=O)c2ccccc2)cc1C(C)C,-3,2.8,/,/,/,
Cc1cccc(C(=O)NCC(=O)OCC(=O)N(C)CC(=O)Nc2ccc(F)cc2)c1,0,0.0,/,/,/,
Cc1cccc(NC(=O)C2CCN(S(=O)(=O)c3cccc4nsnc34)CC2)n1,-3,-1.8,/,-17,8,
COc1cc(C(=O)OCC(C)=O)ccc1OCc1c(C)noc1C,/,0.3,66%,/,-10,
CCN(C(=O)COC(=O)CNS(=O)(=O)c1ccc(SC)c([N+](=O)[O-])c1)C1CCCCC1,-4,1.3,/,/,/,
O=C(CN1CCN(CC(=O)Nc2ccccc2Cl)CC1)Nc1ccc2c(c1)OCCO2,2,0.1,7%,-34,-15,
CCCNC(=O)[C@H](C)NC(=O)c1ccc(Br)cc1,0,0.6,-1%,/,-1,
O=C1CCNCCN1[C@H](CO)Cc1ccccc1,-4,-4.1,/,/,/,
CC(C)C(=O)Nc1ccc(C(=O)NNC(=S)NC(=O)c2cccs2)cc1,15,4.1,30%,-31,-17,
COC(=O)c1cn(NC(=O)C2CCC(C)CC2)c(=O)c2ccccc12 (stereo unspecified),1,-1.1,-4%,-16,-2,

# From PubChem
